HPGD inh – qHTS Assay for Inhibitors of HPGD (15-Hydroxyprostaglandin Dehydrogenase) | 15-hydroxyprostaglandin dehydrogenase [NAD(+)] (Homo sapiens), P15428 | purified HPGD, NADH fluorescence kinetic, PGE2 substrate | Potency, µM, inactives show at the highest dose activity change, negative = inhibition, usual class: inhibitors | 4.3% of 150,000 active | AID 894, 2007; active = well fitted inhibition curve with a large enough effect (not every such curve was filed as active); inconclusive = small, poorly fitted or top-dose-only effect, or another doubt; inactive = no such curve, though single readings can be large or run the other way;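 note: top concentration of the series not given in the record; plate controls included wells without enzyme; inactives centre near -10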
Target sequence (P15428 whole entry, looked up): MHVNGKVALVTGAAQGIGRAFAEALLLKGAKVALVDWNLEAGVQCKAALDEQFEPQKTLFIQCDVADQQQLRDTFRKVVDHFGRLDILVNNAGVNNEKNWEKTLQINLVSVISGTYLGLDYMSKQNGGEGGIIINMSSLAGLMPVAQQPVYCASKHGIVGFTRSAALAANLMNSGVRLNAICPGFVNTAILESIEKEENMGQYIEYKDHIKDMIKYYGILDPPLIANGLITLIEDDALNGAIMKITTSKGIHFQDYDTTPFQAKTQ
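NADH formation kinetics: reaction with 30 uM PGE2 and 1 mM NAD+ (final), 20 nM enzyme, Tris-HCl pH 8 with Tween 20, after 15 min compound preincubation at room temperature. Fluorescence change, last versus first of five reads.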
Active calls of the source: *; ? = inconclusive. % is set by controls: 0 for no effect and ±100 for the full control effect; potency is the fitted concentration of half-maximal effect. Not all compounds are listed. The share of hits here may be higher or lower than overall.

HPGD inh | mol
-23% | COc1ccc(/C(O)=C2/C(=O)C(=O)N(CCCC(=O)O)C2c2ccc(OC)c(OC)c2)cc1 (stereo unspecified)
-11% | CCCc1[nH]nc2c1C(CCc1ccccc1)C(C#N)=C(N)O2 (stereo unspecified)
-11% | O=C(Oc1nsnc1N1CCCCC1)N1CCOCC1
-14% | Cc1noc(C)c1CSc1nc2ccccc2n1C
-7% | Cc1cc(C)n(C(=O)CSc2ccc(Cl)cc2)n1
? | COc1cc(/C=C/C(=O)Nc2ccncc2)cc(OC)c1OC
-7% | Cc1ccc(CNC(=O)C2CCC(=O)N2CCc2ccccc2)cc1 (stereo unspecified)
-7% | Cc1cccc(Nc2nc(N)nc(CN3CCN(Cc4ccc5c(c4)OCO5)CC3)n2)c1
-13% | O=C1NC(c2ccccc2)=C(c2ccc3ccccc3n2)C(c2ccccc2)N1 (stereo unspecified)
-7% | CCOC(=O)c1cnc2c(N=Nc3ccccc3)c(N)nn2c1N
-11% | CC(=O)c1c(N2CCC(C(N)=O)CC2)nc(=S)n(-c2ccccc2)c1C
-3% | Cc1cccc(C)c1NC(=O)C(NC=O)c1ccc(N(C)C)cc1 (stereo unspecified)
-4% | Cc1ccc(/C=N\NC(=O)Cn2c(C)nc3ccccc32)o1
-29% | O=C(NCCc1cn2ccsc2n1)C1CCCCC1
-21% | O=c1cc(-c2ccc(O)c(O)c2)oc2c(C3O[C@H](CO)[C@@H](O)[C@H](O)[C@H]3O)c(O)cc(O)c12 (stereo partly specified)
-4% | CCOC(=O)NC(Nc1nc2ccccc2s1)(C(=O)OCC)C(F)(F)F (stereo unspecified)
-2% | Cc1ccc(-c2nnc(SCC(=O)CC(=O)Nc3ccccc3)n2C)cc1
-17% | C=CCNC(=S)NNC(=O)c1ccc(Br)cc1
-5% | CN1C(=O)/C(=C/c2ccc3c(c2)OCO3)N=C1c1ccccc1
-5% | C/C(=N\NS(C)(=O)=O)c1ccccc1
-11% | O=C1[C@@H]2Cc3ccccc3CN2C(=O)N1c1cccc(F)c1
-15% | COc1ccc(C2C(C(=O)Nc3cccnc3)=C(C)Nc3nc(-c4cccs4)nn32)cc1OC (stereo unspecified)
-20% | CCOC(=O)c1nn(-c2ccccc2)c(=O)c2c(N)scc12
? | Cc1cc(C(F)F)n2nc(C(=O)Nc3ccc(S(=O)(=O)N4CCCC4)cc3)nc2n1

Part of the list above, reformatted.
smiles | HPGD inh
Cc1ccc(CNC(=O)C2CCC(=O)N2CCc2ccccc2)cc1 (stereo unspecified) | -7%
Cc1cccc(Nc2nc(N)nc(CN3CCN(Cc4ccc5c(c4)OCO5)CC3)n2)c1 | -7%
O=C1NC(c2ccccc2)=C(c2ccc3ccccc3n2)C(c2ccccc2)N1 (stereo unspecified) | -13%
CCOC(=O)c1cnc2c(N=Nc3ccccc3)c(N)nn2c1N | -7%
CC(=O)c1c(N2CCC(C(N)=O)CC2)nc(=S)n(-c2ccccc2)c1C | -11%
Cc1cccc(C)c1NC(=O)C(NC=O)c1ccc(N(C)C)cc1 (stereo unspecified) | -3%
Cc1ccc(/C=N\NC(=O)Cn2c(C)nc3ccccc32)o1 | -4%
O=C(NCCc1cn2ccsc2n1)C1CCCCC1 | -29%
O=c1cc(-c2ccc(O)c(O)c2)oc2c(C3O[C@H](CO)[C@@H](O)[C@H](O)[C@H]3O)c(O)cc(O)c12 (stereo partly specified) | -21%
CCOC(=O)NC(Nc1nc2ccccc2s1)(C(=O)OCC)C(F)(F)F (stereo unspecified) | -4%
Cc1ccc(-c2nnc(SCC(=O)CC(=O)Nc3ccccc3)n2C)cc1 | -2%
C=CCNC(=S)NNC(=O)c1ccc(Br)cc1 | -17%
CN1C(=O)/C(=C/c2ccc3c(c2)OCO3)N=C1c1ccccc1 | -5%
C/C(=N\NS(C)(=O)=O)c1ccccc1 | -5%
O=C1[C@@H]2Cc3ccccc3CN2C(=O)N1c1cccc(F)c1 | -11%
COc1ccc(C2C(C(=O)Nc3cccnc3)=C(C)Nc3nc(-c4cccs4)nn32)cc1OC (stereo unspecified) | -15%
CCOC(=O)c1nn(-c2ccccc2)c(=O)c2c(N)scc12 | -20%
Cc1cc(C(F)F)n2nc(C(=O)Nc3ccc(S(=O)(=O)N4CCCC4)cc3)nc2n1 | ?

Next part
HPGD inh | mol
-14% | S=C(Nc1ccccc1)N1CCCCCC1
-20% | O=C(/C=C/c1ccc(F)cc1)NCCC1=CCCCC1
-15% | c1coc(CNc2nc3sc4c(c3c3ncnn23)CCCC4)c1
-2% | COc1ccc(NC(=O)c2cc(C3CC3)on2)c(OC)c1
? | COc1cc2c(cc1NC(=O)COc1ccc3ccccc3c1)oc1ccccc12
-2% | C/C(C=O)=C/c1ccccc1
-10% | COC(=O)c1ccc(C)c(NC(=O)c2c(-c3ccccc3)noc2C)c1
-17% | COc1ccc(Cl)cc1Nc1nc(-c2sc(NC(=O)CC(C)C)nc2C)cs1
-3% | O=C(O)CCS(=O)(=O)c1ccc(-c2ccccc2)cc1
28µM* | Cc1nonc1OC(C)CNc1ccc([N+](=O)[O-])cc1 (stereo unspecified)
-12% | CCCc1cc2c(cc1NC(=O)c1ccc(Br)cc1)OCO2
-21% | OC(COCC1CC=CCC1)Cn1cnc2ccccc21 (stereo unspecified)
-19% | Cc1ccc(-n2nc3c(Cl)nnc(C)c3c2C)cc1
-3% | COc1cccc(Cn2nnc(C(=O)NCc3ccccc3Cl)c2N)c1
-6% | CC#CCN1c2ccccc2[C@]23C[C@@H](C(=O)OC)N(C(=O)OCC)C2=NC(C(=O)OC)=C(C(=O)OC)[C@H]13
-8% | O=C(CSc1ncccn1)Nc1ccccc1
? | CCS(=O)(=O)NCc1csc(-c2ccccc2)n1
-2% | CC(=O)c1c(Nc2ccccc2)sc(C(=O)c2ccccc2)c1C
-2% | O=C(Cc1cccs1)N1CCN(C(=O)C2CCCO2)CC1 (stereo unspecified)
0% | CC(=O)N1CSCC1C(=O)O (stereo unspecified)
13µM* | Cc1ccc2c(c1)NCC(C(=O)NC1CCCCC1)O2 (stereo unspecified)
-3% | CCCCCCCN=CC1=C(O)CC(c2ccccc2)CC1=O (stereo unspecified)
0% | O=C(CCSc1ccccc1)Nc1ccc(OCc2ccccc2)cc1
? | O=c1cc(CSc2nc(NCc3ccccc3)c3ccccc3n2)nc2ccc(Cl)cn12
-22% | CCCCNc1ccc2nsnc2c1[N+](=O)[O-]
13µM* | CCCNC(=O)c1ccc(C2SCC(=O)N2CCc2ccccc2)cc1 (stereo unspecified)
-14% | CC1(C)CC(=O)C2=C(C1)Nc1ccccc1NC2c1cccnc1 (stereo unspecified)
? | O=C(OC1CCCCC1)c1ccc2c(c1)C1C=CCC1C(C(=O)O)N2 (stereo unspecified)
-20% | Cc1cc(F)c(Nc2ncnc3cc(OCc4ccccc4)ccc23)cc1O
4% | CCCn1c(NCc2cccc(OC)c2O)nc2ccccc21
-15% | Cc1c(NC(=O)c2cnn3c2NC(c2ccco2)CC3C(F)(F)F)c(=O)n(-c2ccccc2)n1C (stereo unspecified)
-18% | Cc1ccccc1/[N+]([O-])=C/c1ccncc1
-3% | CCC1CCc2c(c3ccccc3[nH]c2=O)O1 (stereo unspecified)
-18% | C=CCn1c(=NC(=O)CN2C(=O)CCC2=O)sc2cccc(OC)c21
-6% | CCC1(CC)NC(=O)N(CC(=O)OCC(=O)Nc2cc(C)ccc2C)C1=O
-21% | Cc1cc(C)c2c(c1)-c1c(ssc1=S)C(C)(C)N2C(=O)CN1C(=O)c2ccccc2C1=O
-3% | COc1ccc(C2CC(c3cc(Br)ccc3F)n3nnnc3N2)cc1 (stereo unspecified)
-12% | CC(C)C1N(c2ccccc2)C(N)=C(C#N)C1(C#N)C#N (stereo unspecified)
-15% | O=C(O)c1cccc(NC(=O)c2ccc(S(=O)(=O)c3ccccc3)cc2)c1
-18% | Cc1ccc(S(=O)(=O)N(C)CC(=O)O/N=C(\N)c2cccc([N+](=O)[O-])c2)cc1
-19% | CCOC(=O)N1CCN(C(=O)c2oc3ccc(S(=O)(=O)N4CCCCC4)cc3c2C)CC1
-14% | Cn1cc(CNC(=O)C2c3ccccc3Oc3ccccc32)cn1
? | COc1ccc(CN2CCN(c3cc(C)nc4c5c(C)cc(C)nc5nn34)CC2)cc1F
-3% | CCSc1nnc(NC(=O)NC(CC)(C(F)(F)F)C(F)(F)F)s1
-11% | CCN(CC)C(=O)C1CCCN(Cc2cccc(F)c2)C1 (stereo unspecified)
-10% | Cc1cccc(NS(=O)(=O)c2cnc(Cl)c(Br)c2)n1
-16% | CC1CN/C(=C\C(=O)c2ccc(Br)cc2)C(=O)N1 (stereo unspecified)
-14% | CCOc1ccc(-n2c(N)c(-c3nc4ccccc4[nH]3)sc2=S)cc1
1% | COc1cccc(NC(=O)CNC(=O)c2ccccc2)c1
-15% | CCOc1ccccc1NC(=O)CC1Nc2cc(C)c(C)cc2NC1=O (stereo unspecified)
25µM* | CCOCCOC(=O)COc1ccc2c(-c3ccccc3)cc(=O)oc2c1
-16% | CCOc1ccccc1N(CC(=O)Nc1ccc(S(=O)(=O)N2CCOCC2)cc1)S(=O)(=O)c1ccc(Cl)cc1
? | CC(C)CC(=O)OC1C(N2CCOCC2)c2c(ccc(/C=C/C(=O)N3CCOCC3)c2O)OC1(C)C (stereo unspecified)
? | O=C(CSc1nc2ccsc2c(=O)n1Cc1ccc(C(=O)O)cc1)NCC1CCCO1 (stereo unspecified)
-16% | Cc1cccc(-n2c(O)c(C=Nc3ccc4c(c3)OCO4)c3ccccc3c2=O)n1
-8% | CCOC(=O)c1c2ccc(OCC(=O)N/N=C/c3ccc(Cl)cc3)cc2n2ccccc12
0% | O=S(=O)(N1CCOCC1)n1nnc2ccccc21
-12% | CCc1cccc(NC(=O)c2snc3c(=O)[nH]cnc23)c1
-15% | O=C(NC1CCCCC1)c1ccc(CNc2ccccc2)o1
? | CCN(CC)c1ccc(C(=O)OCC(=O)Nc2cc3oc4ccccc4c3cc2OC)cc1

Continuation:
HPGD inh | mol
-11% | N/C(Cc1cccs1)=N\OC(=O)COc1ccc(Br)cc1
-12% | COC(=O)C1=NN(c2ccccc2)C2(S1)SC(C(C)=O)=C(C)N2c1ccccc1 (stereo unspecified)
-3% | COc1cccc(NC(=O)Cc2nnc(SCCOc3ccccc3)n2C)c1
-7% | CCCCCOC(=O)Cn1c(=O)oc2ccc(C)cc21
-17% | CON(c1nc(Cl)nc(N(C)C)n1)S(=O)(=O)c1ccccc1Cl
-1% | CC1(C)SCC2C(=O)N3C(CSC3(C)C)C(=O)N21 (stereo unspecified)
-16% | CSc1nc(C)c(CCOC(=O)c2cccc(Cl)c2)c(=O)[nH]1
-13% | Cc1ccc(CSc2nnc(-c3cccs3)n2C)cc1
-4% | NC1=NC(=O)C2(COC(c3ccccc3Cl)OC2)S1 (stereo unspecified)
-6% | c1ccc(-n2nnnc2OCCOc2nnnn2-c2ccccc2)cc1
-21% | O=c1c2ccccc2nc(-c2cccs2)n1-c1cccc2ccccc12
-4% | CC(=O)c1cccc(NC(=O)c2ccc(N(C)S(C)(=O)=O)cc2)c1
-1% | C=C(C)C(=O)c1ccc(OC)cc1
7% | COC(=O)CN1C(=O)CC(C)(C)S(=O)c2ccccc21 (stereo unspecified)
3% | CCOCCOCC
-11% | COC(=O)c1ccc(/C=C(\C#N)c2nc3ccccc3s2)cc1
13µM* | COc1cccc(-c2ccc(=O)n(CC(=O)Nc3ccc(C(=O)N4CCCC4)cc3)n2)c1
-23% | Cc1[nH]n(-c2ccc([N+](=O)[O-])cc2)c(=O)c1C=NCCc1c(C)[nH]c2ccccc12
-14% | CCC(=O)c1ccc(O)cc1
-12% | C/C(=N\NC(=O)c1ccc(C)cc1C)c1ccc(-n2ccnc2)cc1
7% | N/C(=N\OC(=O)CCc1ccccc1)c1ccc(Br)cc1
-6% | CSc1ccc(Cn2nnc(C(=O)NCc3ccccc3)c2N)cc1
18% | Cc1ccc(C)c(OCCn2cc(/C=C(\C#N)C(=O)NCc3ccco3)c3ccccc32)c1
-13% | Cc1ccc(SCC(=O)N2CC(C)OC(C)C2)cc1 (stereo unspecified)
-11% | CCC(C)c1c(O)nc(SCC(=O)c2ccccc2)[nH]c1=O (stereo unspecified)
-6% | CCN(CC(=O)N1CCOCC1)S(=O)(=O)c1ccc(C)cc1
-12% | C/C(Cn1nnc2ccccc21)=N\NC(=O)c1cccc(Br)c1
-17% | COc1ccc(-c2cc(-c3c(O)c(OC)c4occc4c3OC)[nH]n2)cc1OC
-16% | Cc1ccc(N(CC(=O)N/N=C/c2cccs2)S(C)(=O)=O)cc1Cl
-17% | O=C(Cn1cnc2c(nnn2Cc2ccccc2)c1=O)c1ccc(Cl)cc1
1% | CCOC(=O)N1CCN(C(=O)C2CCN(CC3CCCCC3)CC2)CC1
-4% | CN(N=O)C(=O)N[C@H]1[C@@H](O)[C@H](O)[C@H](CO)O[C@@H]1O
-6% | CCC(=O)C(C(=O)OC)[C@H](CCc1ccccc1)NC(=O)OC (stereo partly specified)
? | O=C(O)CC1(Cc2nc(-c3cccs3)no2)CCCC1
-8% | O=C(CCCn1c(SCC(=O)c2ccc(F)cc2)nc2ccccc2c1=O)NCc1ccco1
-16% | COC(=O)C/C=C/[C@@H](C)[C@H](OC)c1c(Br)ccc2c1OCO2
? | C=CCOc1c2ccc(C(=O)N(CC)c3ccc(OC)cc3)cc2nn1C
-14% | COc1ccc(N2C(=O)CCC(C(=O)NCCN3CCOCC3)C2c2ccc(OC)c(OC)c2)cc1 (stereo unspecified)
-7% | CCOC(=O)CCC(=O)Nc1ccc(S(=O)(=O)N2CCC(C)CC2)cc1
-2% | COc1ccc(Nc2cc(C(=O)NCCCN3CCN(C)CC3)c3ccccc3n2)c(OC)c1

Some of these compounds in order of their number in HPGD inh, largest number first:
smiles,HPGD inh
Cc1nonc1OC(C)CNc1ccc([N+](=O)[O-])cc1 (stereo unspecified),28µM*
CCOCCOC(=O)COc1ccc2c(-c3ccccc3)cc(=O)oc2c1,25µM*
Cc1ccc2c(c1)NCC(C(=O)NC1CCCCC1)O2 (stereo unspecified),13µM*

Screening results as filed in PubChem BioAssay.
